MLL AF4-AF9 inh: inhibitors of human MLL-AF4/AF9 interaction. inhibition, % at 10 µM. actives 0.47% (n = 350,000). AlphaScreen, biotin-AF4 peptide binding to FLAG-AF9. P42568;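 active means every replicate reaching a set inhibition limit, whatever the replicate mean, cut at about 25% in these data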;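 further: 0% = plate neutral control median and 100% = total signal loss; the record names both 10 and 1 µM as test concentration; the first replicate is given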
Target sequence (P42568 whole entry, looked up): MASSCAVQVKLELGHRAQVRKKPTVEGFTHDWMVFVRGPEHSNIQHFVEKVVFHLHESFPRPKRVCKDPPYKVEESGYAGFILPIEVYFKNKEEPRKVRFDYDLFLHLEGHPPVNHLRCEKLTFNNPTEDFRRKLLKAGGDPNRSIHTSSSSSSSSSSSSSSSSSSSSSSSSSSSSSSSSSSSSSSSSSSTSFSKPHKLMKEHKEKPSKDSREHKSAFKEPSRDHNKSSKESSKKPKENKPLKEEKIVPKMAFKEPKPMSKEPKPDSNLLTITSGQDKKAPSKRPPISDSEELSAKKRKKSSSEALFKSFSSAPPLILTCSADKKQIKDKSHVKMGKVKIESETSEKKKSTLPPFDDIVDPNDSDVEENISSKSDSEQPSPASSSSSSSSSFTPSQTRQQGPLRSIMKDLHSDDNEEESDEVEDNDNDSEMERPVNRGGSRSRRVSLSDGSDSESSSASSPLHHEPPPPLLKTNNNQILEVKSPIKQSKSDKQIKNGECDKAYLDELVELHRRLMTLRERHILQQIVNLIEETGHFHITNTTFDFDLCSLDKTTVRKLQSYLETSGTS
FGF22 binding: binders of recombinant human FGF22 by thermal shift; AID 651658; Q9HCT0; actives 1.5% (n = 340,000); calls only at 9.99 µM; SYPRO orange fluorescence; percent of sucrose octasulfate shift, DMSO zero;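 active means melting point raised past a set limit in the mean and every replicate; three in four hits are not shown here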
Target sequence (Q9HCT0 whole entry, looked up): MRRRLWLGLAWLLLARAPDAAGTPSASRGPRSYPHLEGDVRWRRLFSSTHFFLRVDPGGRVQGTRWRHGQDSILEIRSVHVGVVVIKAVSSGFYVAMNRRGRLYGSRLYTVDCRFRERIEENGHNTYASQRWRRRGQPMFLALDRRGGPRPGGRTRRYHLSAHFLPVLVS
Ecoli rRNA inh: selective bacterial rRNA inhibition in E. coli. E. coli WT GFP vs humanized-ribosome RFP mutants, fluorescence, 24 h; stronger effect = lower value; DMSO median 0, no signal -100. GFP signal change (wild-type ribosome), % (concentration not given with the values). actives 1.6% (n = 350,000). AID 720706;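 active means significant combined selectivity score with lowered wild-type GFP, culture density cut under 30%, mutant RFP and density less affected; inactive means any of these conditions unmet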; further: one replicate is shown; some compounds called inactive have numbers as strong as hits
Ecoli rRNA inh OD600: further read-out of Ecoli rRNA inh, marked with its call; OD600 change, %; measured here: OD600 growth;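 optical density of the mix in the first replicate; 0 = DMSO median and -100 = no signal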
Ecoli rRNA inh RFP: second read-out of Ecoli rRNA inh, no call of its own (marks repeat the call); RFP signal change, %; measured here: RFP humanized mutant strains;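 first replicate; 0 = DMSO median and -100 = no signal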
* = called active by the depositor; i = inactive; . = no result given; & = joins results of further samples. Some of the compounds tested (hit frequency here may not be typical).

SMILES	MLL AF4-AF9 inh	FGF22 binding	Ecoli rRNA inh	Ecoli rRNA inh OD600	Ecoli rRNA inh RFP
C[C@@H]1CN([C@H](C)CO)C(=O)c2cc(NC(=O)CCC(F)(F)F)ccc2O[C@@H]1CN(C)S(C)(=O)=O	-4.3	i	3	14	-1.1
CC1(C(=O)Nc2ccc3c(c2)OCCO3)CCN1Cc1ccccc1OC(F)F (stereo not given)	3.2	i	-22	-49	-5.5
COc1ccc(CN(C)C[C@@H]2OCCCC[C@@H](C)Oc3ccc(NS(=O)(=O)c4ccc(Cl)cc4)cc3C(=O)N([C@H](C)CO)C[C@H]2C)cc1	9.2	i	2	-10	13
C[C@H]1CN([C@@H](C)CO)C(=O)c2cc(/C=C/c3ccccc3)cnc2O[C@@H]1CN(C)C(=O)C1CCOCC1	-3.4	i	3	8	-2.5
O=C(Cc1ccncc1)NCC[C@H]1CC[C@H](NC(=O)C2CCC2)[C@H](CO)O1	-2.5	i	2	7	-2.4
CCCNC(=O)C1(C)CCCN(Cc2ccc(-c3ccccc3)cc2)C1 (stereo not given)	2.8	i	-5	2	2.4
C[C@@H]1CN([C@@H](C)CO)C(=O)Cc2cc(NC(=O)CCC(F)(F)F)ccc2O[C@@H]1CN(C)C(=O)Nc1cccc2ccccc12	-1.6	i	-3	-2	1.1
O=C(Cc1ccncc1)NCC[C@H]1CC[C@H](NC(=O)C2CC2)[C@@H](CO)O1	2.3	i	0	0	-0.5
COC(=O)c1ccc2nc(-c3ccc(C)cc3)c(CC(C)(C)C)n2c1	-0.7	i	12	1	12
C[C@@H]1CN([C@@H](C)CO)C(=O)c2cc(NC(=O)Nc3cccc4ccccc34)ccc2O[C@@H](C)CCCCO[C@H]1CN(C)C(=O)C1CCCCC1	-0.9	i	1	0	-0.1
CC(=O)Nc1ccc2c(c1)C(=O)N(C)[C@H]1CC[C@@H](CC(=O)NCC3CC3)O[C@H]1CO2	-3.0	i	2	5	-1.9
C/C=C/c1ccc([C@H]2[C@@H](CO)N(C(=O)c3cccnc3)[C@H]2C#N)cc1	0.8	i	-2	1	-4.3
CO[C@@H]1CN(C)C(=O)c2ccc(NC(=O)Cc3ccccc3)cc2OC[C@H](C)N(C(=O)c2ccccc2F)C[C@@H]1C	-7.9	i	0	-8	1.2
CN(C(=O)c1cccc(NC(=O)Cc2cccc(NC(=O)C3CCN(C(=O)C4CCC4)CC3)c2)c1)C1CCC1	-4.5	i	-7	-7	4.3
O=C(NCC1CC1)[C@@H]1[C@@H](CO)[C@@H]2Cn3c(ccc(-c4ccncc4)c3=O)[C@@H]2N1Cc1cocn1	-1.4	i	3	14	-2.1
Cc1ccc(OC2CCN(C(=O)[C@H]3O[C@@H](n4cnc5c(N)ncnc54)[C@H](O)[C@@H]3O)CC2)cc1	0.1	i	-9	-3	-2.4
C[C@H]1CN([C@@H](C)CO)C(=O)c2cc(NC(=O)Nc3ccc(F)cc3)ccc2O[C@H]1CN(C)Cc1ccc(C(=O)Nc2ccccc2N)cc1	-1.3	i	0	-10	0.7
C[C@@H]1CN([C@H](C)CO)C(=O)c2cccc(NC(=O)c3cnccn3)c2O[C@H]1CN(C)CC1CC1	-2.2	i	-3	-3	-2.4
CC(=O)OCC(=O)C1CCC2C3CCC4=CC(=O)C=CC4(C)C3CCC12C (stereo not given)	-1.6	i	-4	0	1.4
CN(C)CC(=O)N[C@@H]1CC[C@@H](CCNS(=O)(=O)c2ccccc2)O[C@H]1CO	0.9	i	1	2	-0.4
COc1cccc(-c2ccc3c(c2)[C@@H]2[C@@H](CCN2S(=O)(=O)c2cn(C)cn2)[C@@H](CO)N3)c1	-0.3	i	-3	-7	1.0
COC(=O)C1C2CC(=O)C(C2)C1C(=O)OC (stereo not given)	0.1	i	8	13	-2.4
COCCNC(=O)C[C@@H]1C[C@H]2c3cc(NC(=O)Nc4ccc(OC)cc4)ccc3O[C@H]2[C@H](CO)O1	-5.2	i	2	-3	-0.6
CC(C)NC(=O)OC[C@H]1O[C@H](C#Cc2ccc(C(C)(C)C)cc2)C=C[C@H]1O	4.6	i	0	-14	6.4
CC(C)OC(=O)N(C)C[C@H]1OCc2cnnn2CCCC(=O)N([C@@H](C)CO)C[C@H]1C	-2.5&-2.3	i	22&-1	14&-4	2.3&-1.2
SMILES	MLL AF4-AF9 inh	FGF22 binding	Ecoli rRNA inh	Ecoli rRNA inh OD600	Ecoli rRNA inh RFP
C[C@H](CO)N1C[C@H](C)[C@H](CN(C)C(=O)c2ccccn2)Oc2ncc(C#Cc3ccccc3)cc2C1=O	-6.3	i	3	1	-0.8
COCC(=O)Nc1ccc2c(c1)OC[C@H](C)N(C(=O)c1cccnc1)C[C@@H](C)[C@@H](OC)CN(C)C2=O	-0.3	i	4	6	-1.2
C[C@@H]1CN([C@@H](C)CO)C(=O)c2cccc(NC(=O)CCCCCC(=O)Nc3ccccc3N)c2O[C@H]1CN(C)S(=O)(=O)c1ccc(F)cc1	-1.0	i	0	0	-0.9
CC(C)(C)n1nnnc1C(c1cc2ccccc2o1)N1CCN(C(=O)OCc2ccccc2)CC1 (stereo not given)	-2.9	i	-2	0	0.0
C[C@H](CO)N1C[C@H](C)[C@@H](CN(C)Cc2ccc(C(=O)O)cc2)Oc2c(NC(=O)Nc3ccccc3)cccc2C1=O	-0.9	i	6	7	-1.2
CO[C@@H]1CC[C@H]2CCOc3c(C#N)cccc3C(=O)N(C)C[C@@H](OC)[C@H](C)C(=O)N(C)C[C@@H]1O2	0.9	i	-2	0	-4.6
COc1ccc([C@H]2C[C@@H](n3cc(COC(=O)c4ccccc4)nn3)[C@H](O)CN2C(=O)c2cccs2)cc1	-3.0	i	-3	-4	-3.6
O=c1ccncn1C1OC(CO)C(O)C1O (stereo not given)	-0.3	i	12	8	1.8
CO[C@@H]1CN(C)C(=O)c2cc(NS(=O)(=O)c3ccc(C)cc3)ccc2OC[C@@H](C)N(C(=O)NC(C)C)C[C@@H]1C	5.7	i	-2	-14	-0.4
Cc1ccc(-c2cnc3c(c2)C(=O)N([C@@H](C)CO)C[C@H](C)[C@@H](CN(C)C(=O)Cc2ccncc2)O3)cc1	1.0	i	-5	7	-2.2
CC(C)NC(=O)Nc1ccc2c(c1)C(=O)N([C@H](C)CO)C[C@H](C)[C@H](CN(C)C(=O)Nc1ccc(F)cc1)O2	-2.3	i	0	4	0.9
Cc1ccc(S(=O)(=O)Nc2ccc3c(c2)C(=O)N([C@@H](C)CO)C[C@H](C)[C@@H](CN(C)C(=O)Nc2cccc4ccccc24)OCCCC[C@@H](C)O3)cc1	3.0	i	2	4	1.6
CN1[C@@H]2Cn3c(ccc(C4=CCCC4)c3=O)[C@H]1[C@@H](C(=O)NC1Cc3ccccc3C1)[C@@H]2CO	2.2	i	-3	-9	0.7
CCNC(=O)C[C@@H]1CC[C@@H](NC(=O)C2CC2)[C@@H](CO)O1	-2.0	i	3	6	1.5
Cc1noc(C)c1NC(=O)NCC[C@@H]1CC[C@@H](NC(=O)Nc2cccc(F)c2)[C@H](CO)O1	6.9	i	1	11	-4.8
Cc1nnc(NS(=O)(=O)c2ccc(F)cc2)s1	0.3	i	9	13	1.9
C[C@@H]1CN([C@H](C)CO)S(=O)(=O)c2ccc(C#Cc3ccccc3F)cc2O[C@@H]1CN(C)C(=O)c1ccc2c(c1)OCO2	-0.9	i	-1	2	0.8
CN(C)CC#Cc1ccc([C@@H]2[C@@H](CO)N3CCCCN(CC4CC4)C[C@@H]23)cc1	26*	i	3	11	2.0
COc1cccc(S(=O)(=O)Nc2ccc3c(c2)[C@@H]2C[C@@H](CC(=O)NCCc4ccccc4)O[C@@H](CO)[C@@H]2O3)c1	0.4	i	-4	-19	1.6
CCCNC(=O)N1CC2(CN(Cc3ccc(F)cc3)C2)c2c([nH]c3cc(OC)ccc23)[C@H]1CO	14	i	-1	6	12
O=C(C(=O)N1CCC(CNS(=O)(=O)c2ccc(F)cc2)CC1)c1cccs1	2.3	i	-1	-6	1.9
CCCN=C1N(CC)C[C@@H]2[C@@H]3C(=O)N(C)C(=O)[C@@H]3[C@](Cc3ccccc3)(C(=O)OC)N12	-3.0	.	2	12	-3.3
Cn1c(=O)c2[nH]c(NN=Cc3ccccc3)nc2n(C)c1=O	-5.6	i	2	9	-0.3
C[C@H](CO)N1C[C@H](C)[C@@H](CN(C)Cc2ccc3c(c2)OCO3)OCCCC[C@H](C)Oc2ccc(NC(=O)c3ccncc3)cc2C1=O	-1.7	i	2	3	0.6
CCC(=O)Nc1ccc2c(c1)OC[C@H](C)N(C(=O)Cc1ccccn1)C[C@H](C)[C@H](OC)CN(C)C2=O	-3.3	i	2	1	0.9
SMILES	MLL AF4-AF9 inh	FGF22 binding	Ecoli rRNA inh	Ecoli rRNA inh OD600	Ecoli rRNA inh RFP
COc1ccc(S(=O)(=O)N(C)C[C@@H]2Oc3c(NC(=O)c4cnccn4)cccc3C(=O)N([C@H](C)CO)C[C@H]2C)cc1	-1.3	i	2	-2	-0.7
C[C@H]1CCCCO[C@@H](CN(C)Cc2ccc(C(F)(F)F)cc2)[C@@H](C)CN([C@@H](C)CO)C(=O)c2cc(NS(=O)(=O)c3cccs3)ccc2O1	1.5	i	0	-14	7.5
CC(C)(C)c1ccc(S(=O)(=O)NC(=O)C2(C)CCN2C(=O)c2cccc3ccccc23)cc1 (stereo not given)	0.1	i	-18	-14	-3.0
O=C(NCC[C@@H]1CC[C@H](NC(=O)C2CCCC2)[C@@H](CO)O1)c1ccc(F)cc1	0.7	i	-1	4	3.2
COc1ccc(NC(=O)N(C)C[C@H]2Oc3ccc(NC(=O)CCN4CCOCC4)cc3C(=O)N([C@@H](C)CO)C[C@@H]2C)cc1	-2.2	i	3	6	-2.9
C[C@H]1CN([C@@H](C)CO)C(=O)c2cc(NC(=O)CCCCCC(=O)Nc3ccccc3N)ccc2O[C@H]1CN(C)CC1CCCCC1	-15	i	-1	0	0.1
COc1ccc(NC(=O)N(C)C[C@@H]2OCCCC[C@@H](C)Oc3ccc(NC(=O)NC4CCCCC4)cc3C(=O)N([C@@H](C)CO)C[C@H]2C)cc1	-4.2	i	1	4	1.1
CCCN1[C@@H]2c3ccc(-c4ccncc4)c(=O)n3C[C@H]1[C@H](CO)[C@H]2C(=O)N1CCCCC1	-1.2	i	4	8	-0.9
CC(=O)Nc1cc(-c2cccc(C(=O)N(C)C)c2)cn2c(-c3ccccc3)cnc12	-1.3	i	-3	-13	4.9
Cc1ccccc1-c1cnc2c(c1)C(=O)N([C@H](C)CO)C[C@H](C)[C@H](CN(C)Cc1cccnc1)O2	-4.1	i	-2	7	-0.1
COc1cc(OC)cc(C(=O)OCC(=O)NC2CCCCCCC2)c1	1.4	i	6	16	-1.0
COCC#Cc1cnc2c(c1)C(=O)N([C@H](C)CO)C[C@@H](C)[C@@H](CN(C)C(=O)Nc1ccc(OC)cc1)O2	-3.0	i	2	4	-2.6
C[C@@H]1CN([C@H](C)CO)S(=O)(=O)c2ccc(C#CC3CC3)cc2O[C@@H]1CN(C)Cc1ccccc1F	6.6	i	-13	-30	-0.4
COc1ccccc1-c1ccc2n(c1=O)C[C@@H]1[C@@H](CO)[C@H](C(=O)N[C@@H](C)c3ccccc3)[C@H]2N1C	-1.4	i	0	-3	-2.5
O=C(Nc1ccccc1)N1CCCCN2[C@H](CO)[C@@H](c3ccc(C#Cc4cccnc4)cc3)[C@H]2C1	7.1	i	-11	7	5.1
COc1ccc(-c2ccc(C3[C@H]4CNC[C@@H]3N4C(=O)Nc3ccc(F)cc3)cc2)cc1 (stereo not given in full)	7.2	i	-50&3	-71&-25	-14&0.8
C[C@@H]1CCCCO[C@H](CN(C)C(=O)C2CCCCC2)[C@H](C)CN([C@@H](C)CO)C(=O)c2cc(NC(=O)Nc3cccc4ccccc34)ccc2O1	-4.4	i	-2	8	-0.3
Cc1noc(C)c1NC(=O)Nc1ccc2c(c1)CC(=O)N([C@@H](C)CO)C[C@@H](C)[C@@H](CN(C)Cc1ccc3c(c1)OCO3)O2	0.6	i	2	3	-0.3

Compound profiles, as listed above. Screens in order: MLL AF4-AF9 inh	FGF22 binding	Ecoli rRNA inh	Ecoli rRNA inh OD600	Ecoli rRNA inh RFP
Record of CC(C)NC(=O)Nc1ccc2c(c1)C(=O)N([C@H](C)CO)C[C@H](C)[C@H](CN(C)C(=O)Nc1ccc(F)cc1)O2 → -2.3	i	0	4	0.9
Record of O=C(Cc1ccncc1)NCC[C@H]1CC[C@H](NC(=O)C2CC2)[C@@H](CO)O1 → 2.3	i	0	0	-0.5
Record of COCCNC(=O)C[C@@H]1C[C@H]2c3cc(NC(=O)Nc4ccc(OC)cc4)ccc3O[C@H]2[C@H](CO)O1 → -5.2	i	2	-3	-0.6

In another format: results already given
Structure,MLL AF4-AF9 inh,FGF22 binding,Ecoli rRNA inh,Ecoli rRNA inh OD600,Ecoli rRNA inh RFP
CC(C)(C)c1ccc(S(=O)(=O)NC(=O)C2(C)CCN2C(=O)c2cccc3ccccc23)cc1 (stereo not given),0.1,i,-18,-14,-3.0
O=C(NCC[C@@H]1CC[C@H](NC(=O)C2CCCC2)[C@@H](CO)O1)c1ccc(F)cc1,0.7,i,-1,4,3.2
COc1ccc(NC(=O)N(C)C[C@H]2Oc3ccc(NC(=O)CCN4CCOCC4)cc3C(=O)N([C@@H](C)CO)C[C@@H]2C)cc1,-2.2,i,3,6,-2.9

Bioassay records: PubChem, Broad Institute
